# From PubChem
# VDR inh – vitamin D3 receptor (human) inhibition; P11473; VDR-SRC2-3 peptide fluorescence polarization, 2 h; Potency, µM, without a hit: max response, negative = inhibition, hits mostly inhibitors; hit rate 0.93% among 400,000; active = well fitted inhibition curve with a large enough effect; inconclusive = small, poorly fitted or top-dose-only effect, or another doubt; inactive = no such curve, though single readings can be large or run the other way; note: series mostly up to about 120 µM
# Target sequence (P11473 whole entry, looked up): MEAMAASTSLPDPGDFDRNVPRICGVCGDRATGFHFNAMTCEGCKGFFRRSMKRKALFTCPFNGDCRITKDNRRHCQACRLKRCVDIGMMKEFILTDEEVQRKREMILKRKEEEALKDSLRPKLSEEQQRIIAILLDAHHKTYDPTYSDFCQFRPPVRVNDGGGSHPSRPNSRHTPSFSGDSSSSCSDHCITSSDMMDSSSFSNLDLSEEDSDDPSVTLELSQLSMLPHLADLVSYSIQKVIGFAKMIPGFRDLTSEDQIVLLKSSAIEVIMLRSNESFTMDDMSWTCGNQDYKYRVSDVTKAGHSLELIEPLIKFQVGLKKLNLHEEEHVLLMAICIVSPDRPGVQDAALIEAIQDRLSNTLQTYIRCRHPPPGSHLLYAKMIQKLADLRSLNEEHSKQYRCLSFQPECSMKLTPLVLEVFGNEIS
#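 Measured by FP: displacement of SRC2-3 coactivator peptide from VDR by library compounds, following a two-hour ambient incubation.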
# * marks the source's active call; other numbers are inactive results; u = inconclusive; & = joins results of further samples; [ ] = another dose, or the depositor's remark. % is set by controls: 0 for no effect and ±100 for the full control effect; potency is the fitted concentration of half-maximal effect.
Structure	VDR inh
CC(C)CC(=O)Nc1ccc(S(=O)(=O)Nc2cc3c(cc2N2CCOCC2)n(C)c(=O)c(=O)n3C)cc1	1.6%
COc1cc(NC(=O)CN2C(=O)C(c3ccc(C)cc3)=NC23CCCCC3)cc(OC)c1	23.0%
CC(C)CC(=O)NCC(c1ccc2c(c1)OCO2)N1CCN(c2ccccc2)CC1 (configuration not stated)	-1.2%
O=C(COC(=O)c1ccccc1C(=O)N1CCN(c2ccccc2)CC1)Nc1ccccc1	5.6%
CCN(CC(=O)NCc1ccc(F)cc1)C(=O)/C=C/c1ccc(OC)c(S(=O)(=O)NC(C)C)c1	-14.7%
Fc1ccc(-c2noc3ncnc(NCCCN4CCN(c5ccccc5)CC4)c23)cc1	5.3%
CCCC(=O)N(CCc1ccccc1)Cc1nc2ccccc2c(=O)[nH]1	-6.7%
CC(C)n1cc(CN2CCC(C(=O)Nc3cccc(-c4cscn4)c3)CC2)cn1	2.2%
O=C(N/N=C/c1cccc(O)c1)c1ccc(-n2cnnn2)cc1	6.7%
Cc1ccc(C)c(N2CCN(C(=O)CCC(=O)Nc3nnc(CC(C)C)s3)CC2)c1	-21.7%
Cc1ccc(OCC(=O)N(Cc2cccc(Cl)c2)C2CCS(=O)(=O)C2)cc1C (configuration not stated)	-25.6%
Cc1cc(NC(=O)CSc2nc3ccccc3c(=O)n2CCCC(=O)NCc2ccccc2)n[nH]1	-2.3%
O=S(=O)(NCc1ccco1)c1ccc(Cl)cc1Cl	-2.6%
CCOC(=O)c1cc(S(=O)(=O)NC2CCC(C)CC2)cn1C (configuration not stated)	1.1%
Cc1cccc(NC(=O)c2cc(CN3CCOCC3)on2)c1C	8.2%
Cc1nnc(SCC(=O)c2c(N)n(C3CC3)c(=O)[nH]c2=O)n1C	2.4%
Cc1ccc2c(c1)N(S(=O)(=O)c1cc(-c3onc(C)c3C)ccc1C)CCO2	12.4%&17.6%
COc1ccc(C2=NN(C(=O)c3cccc([N+](=O)[O-])c3)C(c3cccc([N+](=O)[O-])c3)C2)cc1 (configuration not stated)	10.7%
Cn1cc(-c2nc3cnc(N4CCNCC4)nc3n(C3CC3)c2=O)c2ccccc21	-19.8%
CN1C(=O)CC(C(=O)O)SC1=Nc1ccc(F)cc1 (configuration not stated)	10.2%
CN(C)Cc1nnnn1-c1ccccc1	12.0%
CC(=O)Nc1sc(/C(C#N)=C/c2ccc(Cl)c(Cl)c2)nc1-c1ccc(C)cc1	50.1%[activator]
CCn1c(SCC(=O)NCC2CCCO2)nnc1-c1ccc(S(=O)(=O)N2CCN(C)CC2)cc1 (configuration not stated)	-20.4%
O=C(OC(C(=O)Nc1ccc(Cl)c(C(F)(F)F)c1)c1ccccc1)C1=COCCO1 (configuration not stated)	1.7%
N#C/C(=C1\CCCN1)c1nc(-c2ccccc2)cs1	-9.4%
CC(=O)NCCOc1cccc2ccccc12	0.8%
Cn1nc(C(=O)NC2CCCC2)c2ccccc2c1=O	0.5%
COc1cc(N)c2ncccc2c1Br	-7.1%
Cc1ccc(C(=O)NCC(=O)OCC(=O)Nc2ccccc2[N+](=O)[O-])cc1	-14.9%
Cc1noc(C)c1S(=O)(=O)N(CC(=O)NCc1ccccc1Cl)c1ccc(C(C)C)cc1	-17.8%
CCc1nc2cccnc2n1-c1ccc(CC(=O)O)cc1	12.6%
O=C(Cn1cnc2ccccc21)N/N=C/c1cccnc1	18.2%
Cc1ccc2nc(NC(=O)Cn3cc4c(n3)CCCCC4)sc2c1	-10.7%
O=C(CN1C(=O)NC2(CCCC2)C1=O)N1CCN(S(=O)(=O)c2ccccc2Br)CC1	0.8%
CC(=O)Nc1ccc(C(=O)OCc2ccc(F)cc2Cl)cc1	-1.3%
O=c1[nH]c(C(F)(F)C(F)(F)C(F)(F)F)no1	-0.3%
CCOc1ccc(/C=N/NC(=O)C(OC)c2ccccc2)cc1 (configuration not stated)	8.8%
COc1ccc(C(=O)N2CCCC(CO)(Cc3ccccc3C)C2)o1 (configuration not stated)	-29.0%
COc1ccc(-c2csc(NC(CO)c3nc4ccccc4n3CCOCCO)n2)cc1 (configuration not stated)	-21.1%
CCn1cc2nc(SCc3cccc(C)c3)n(CCc3ccccc3)c(=O)c2n1	16.1%
COc1ccc(OC)c2c1C(=O)c1ccccc1C2=O	10.7%
CC(=O)N(CN1C(=O)C2C3C=CC(C3)C2C1=O)c1cccc(Cl)c1 (configuration not stated)	20.9%
CSc1ncccc1C(=O)Nc1ccccc1N1CCOCC1	-7.2%
O=C(CCCN1C(=O)/C(=C/c2ccc(F)cc2)SC1=S)NCCCn1ccnc1	-3.7%
CC(C)C(OC(=O)c1ccco1)C(=O)NCc1cccs1 (configuration not stated)	8.2%
N#Cc1c(-c2ccc(Cl)cc2)c2c([nH]c1=O)-c1ccccc1OC2	1.7%
O=c1[nH]c2ccc(NCc3ccc(OCc4ccccc4Cl)cc3)cc2[nH]1	-4.6%
O=c1c(Cc2ccc(F)cc2)c(O)ccn1CCCn1ccnc1	5.9%
CCOc1ccccc1NC(=O)c1nnn(-c2ccc3c(c2)OCCO3)c1N	-12.3%
COc1ccc2nc(NC(=O)CNS(=O)(=O)c3cccs3)sc2c1	-10.2%

# Continued.
Structure	VDR inh
O=C(Nc1ccc2nc3n(c(=O)c2c1)CCCCC3)c1cccc(C(F)(F)F)c1	7.9%
COC(=O)C/C=C/[C@@H](C)[C@H](NC(=O)OCC(Cl)(Cl)Cl)c1ccccc1	1.4%
CCOC(=O)C(CC)Sc1nnc2n1C(C)(C)Cc1ccccc1-2 (configuration not stated)	0.1%
O=C(CSc1nc2nccnc2c(=O)n1CCc1c[nH]c2ccccc12)Nc1ccccc1	16.1%
CC(C)CN(C(=O)c1ccc2c(c1)OCO2)C1CCS(=O)(=O)C1 (configuration not stated)	0.4%
Cc1ccccc1Oc1nc2c(C)cccn2c(=O)c1/C=C(\C#N)C(=O)NC1CCS(=O)(=O)C1 (configuration not stated)	39.8µM*
CCOCCCNC(=O)C(c1ccc(C)cc1)N(Cc1ccc2c(c1)OCO2)C(=O)c1cnccn1 (configuration not stated)	-15.1%
O=C(c1cccc(S(=O)(=O)N2CCOCC2)c1)N1CCCC1	7.0%
O=C(NCCN1CCCC(O)C1)c1cc(COc2ccc(F)cc2Cl)on1 (configuration not stated)	4.4%
COc1ccc(C(=O)N2CCC(c3nc(-c4ccc(S(=O)(=O)N5CCCC5)cc4)no3)CC2)cc1	3.9%

# VDR inh: what is marked active above
Structure	VDR inh
Cc1ccccc1Oc1nc2c(C)cccn2c(=O)c1/C=C(\C#N)C(=O)NC1CCS(=O)(=O)C1 (configuration not stated)	39.8µM*

# The main list resumes; the 5 compounds before the break are reprinted first.
Structure	VDR inh
Cc1ccccc1Oc1nc2c(C)cccn2c(=O)c1/C=C(\C#N)C(=O)NC1CCS(=O)(=O)C1 (configuration not stated)	39.8µM*
CCOCCCNC(=O)C(c1ccc(C)cc1)N(Cc1ccc2c(c1)OCO2)C(=O)c1cnccn1 (configuration not stated)	-15.1%
O=C(c1cccc(S(=O)(=O)N2CCOCC2)c1)N1CCCC1	7.0%
O=C(NCCN1CCCC(O)C1)c1cc(COc2ccc(F)cc2Cl)on1 (configuration not stated)	4.4%
COc1ccc(C(=O)N2CCC(c3nc(-c4ccc(S(=O)(=O)N5CCCC5)cc4)no3)CC2)cc1	3.9%
COc1ccccc1C(=O)O/N=C(\N)c1ccccn1	-3.2%
O=C(NCC1COc2ccccc2O1)C1CCC(CNc2c(N3CCCCC3)c(=O)c2=O)CC1 (configuration not stated)	-2.1%
CN1CCC(=NNC(=O)CSCc2ccccc2)CC1	1.5%
O=C(CSc1nnc(-c2ccncc2)n1CC1CCCO1)NCc1ccccc1 (configuration not stated)	-7.9%
CN(C[C@H](Cc1ccccc1)N(C[C@H](Cc1cccc2ccccc12)N(CCc1ccccc1)N=O)N=O)N=O	-10.3%
Cc1ccc(S(=O)(=O)n2[nH]c(=O)cc2N)cc1	-9.7%
COc1cc(/C=C(\NC(=O)c2ccccc2)C(=O)NCC(=O)O)c([N+](=O)[O-])cc1OC	4.0%
CCOc1ncccc1C(=O)NCC(c1ccco1)N1CCCCC1 (configuration not stated)	-10.5%
COc1ccc(/C=C2/SC(=S)N(CC(=O)O)C2=O)cc1OCc1ccc(Cl)cc1	u
CN(C)C1(CNC(=O)CC(NC(=O)c2ccccc2Cl)c2ccccc2)CCCCC1 (configuration not stated)	-2.9%
CC1CCN(C(=O)Cn2nnc(-c3cccs3)n2)CC1	-7.3%
CCC(=O)N1CCc2cc(S(=O)(=O)CCC(=O)Nc3ccc(OC)c(OC)c3)ccc21	-2.3%
O=C(NCCS(=O)(=O)N1CCN(c2ccccc2F)CC1)c1cc(=O)c2ccccc2o1	-22.8%&3.0%
CCOC(=O)Cc1c(C)[nH]n(-c2ccccc2)c1=O	-9.7%
CCOC(=O)COc1nc(OC)nc(N2CCOCC2)n1	-3.6%
COc1cccc(Nc2ncc3nc(C)c(=O)n(Cc4cccs4)c3n2)c1	6.7%
COc1ccc(CN2CCC(CO)(CCOc3ccccc3)CC2)c(OC)c1C	1.1%
O=C(COC(=O)c1cccnc1Nc1cccc(C(F)(F)F)c1)NC1CCS(=O)(=O)C1 (configuration not stated)	-3.6%
O=c1c2ccccc2oc2nc(-c3ccco3)n(Cc3ccccc3)c(=O)c12	8.5%
COc1cc(C(C)=O)ccc1OCC(O)CN1CCN(c2ccc(C)cc2C)CC1 (configuration not stated)	-7.4%
COc1ccc(C2C=C(C)Nc3nc(SC)nn32)cc1 (configuration not stated)	3.3%
Clc1ccc(/C=N/Nc2nnc(Cl)c3ccccc23)cc1	9.8%
CCOC(=O)Cc1csc(NC(=O)c2ccc(S(=O)(=O)N3CCCCC3)cc2)n1	3.6%
C[C@H](CO)N1C[C@H](C)[C@@H](CN(C)C(=O)Nc2ccc(C(F)(F)F)cc2)Oc2c(NC(=O)Nc3ccc4c(c3)OCO4)cccc2C1=O	0.5%
COc1ccc(CCNC(=O)CCn2c(=O)c3ccccc3n(CC(=O)NCC3CCCO3)c2=O)cc1OC (configuration not stated)	2.6%
Cc1ccc(/C=C/C(=O)OCC(=O)Nc2cccnc2Cl)o1	-13.6%
O=c1cc(-c2ccccc2)cc(-c2ccccc2)n1O	0.7%
COc1ccc(F)cc1C(=O)C1CCCN(C(=O)CCc2ccccn2)C1 (configuration not stated)	2.1%
Oc1ccc(Br)cc1-c1cc(-c2ccccc2)n[nH]1	2.2%
CCC(=O)NCc1c(Cl)cccc1-n1cccc1	7.4%
COc1ccc(NC(=O)C(=O)NCC(c2ccco2)N2CCc3ccccc32)cc1 (configuration not stated)	-8.3%
CCC(C)(C)C1CCC2(CC1)NC(=O)N(CC(=O)Nc1cc(C(F)(F)F)ccc1N1CCOCC1)C2=O (configuration not stated)	8.9%
N/C(=N\OC(=O)c1ccc2c(c1)OCO2)c1ccc([N+](=O)[O-])cc1	0.7%
Cc1noc(N)c1C(=O)Nc1ccccc1F	-0.7%
CN(C)CCNC(=O)Cn1ccc2cc(S(=O)(=O)N3CCCCCC3)ccc21	12.9%&-1.3%
O=[N+]([O-])c1ccc(N2CCN(S(=O)(=O)c3ccccc3)CC2)cc1	3.7%
CCOC(=O)C1CCN(S(=O)(=O)c2ccc3c(c2)CCCN3C(C)=O)CC1	19.8%
O=S(c1ccccc1)c1ccccc1	10.3%
O=C(NCc1ccco1)c1ccc([N+](=O)[O-])o1	-14.5%
CC(C)(C)CN1CCN(Cc2cccnc2)CC1CCO (configuration not stated)	-9.4%
Cc1cc(C)c2c(N)c(C(=O)c3ccc(Cl)cc3Cl)sc2n1	-8.0%
COc1ccc(CCNC(=O)c2cc(-c3cc(Cl)ccc3O)n[nH]2)cc1OC	-2.2%
O=C(CSc1nc2ccc(Cl)cc2[nH]1)c1ccc2c(c1)OCO2	-8.6%
Cn1cccc1C(=O)NNC(=O)c1ccccc1Br	16.6%
Cc1nnc(C)n1/N=C/c1ccc2c(c1)OCCO2	12.6%
CN(C)CCC(C(=O)c1ccccc1)c1ccncc1 (configuration not stated)	1.3%
COc1ccc(NC(=O)CCC(=O)c2ccc(Cl)cc2)cn1	10.8%
O=C(NCc1ccc2c(c1)OCO2)C1CCC(CNc2c(N3CCCC3)c(=O)c2=O)CC1 (configuration not stated)	7.2%
CCn1c(SCC(=O)Nc2ccccc2)nc2ccccc2c1=O	-4.0%
O=C(CCN1c2ccccc2Sc2ccccc21)Oc1ccccc1	-12.2%

# Carrying on.
Structure	VDR inh
C/C(N)=C(/C#N)C(=O)COC(=O)c1cc(-c2cccc(Br)c2)nc2ccccc12	-11.5%
CN1C(=O)N(CC(=O)N2CCN(c3ncccn3)CC2)C(=O)C12CCCCC2	7.0%
C=CCC(NCc1ccccc1)c1ccccc1 (configuration not stated)	10.9%
Cc1ccc(Nc2nc3c(s2)CCC3)c(C)c1	-0.7%
Cc1ccc(-n2nc(C)c3c2OC(N)=C(C#N)C3c2ccncc2)cc1 (configuration not stated)	-9.0%
COc1ccccc1N1CCN(C(=O)CCNC(=O)c2ccco2)CC1	1.8%
CS(=O)(=O)N(Cc1ccc(C(=O)NN=C2CCCC2)cc1)c1ccccc1	-9.3%
CCOc1ccc(CCNC(=O)COC(=O)c2nccnc2N)cc1OCC	-8.5%
N#CC1=C(N)SC2(CCCCC2)SC1c1ccccc1 (configuration not stated)	-28.9%
Cc1cccc(NC(=O)CSc2cn(CC(=O)N3CCC(C)CC3)c3ccccc23)c1C	14.2%
COC(=O)c1cc(S(=O)(=O)N2CCOCC2)c(Cl)cc1N1CCOCC1	4.0%
Nc1nnc(SCC(=O)N2CCN(c3cccc(Cl)c3)CC2)n1-c1ccccc1	-28.9%
CCCNC(=O)c1ccc(N2CCC3(CC2)CC(c2ccccc2)=NO3)c(N)c1	-29.5%

# A portion of the library (hit frequency here may not be typical).
